# NOMO-1 viab: NOMO-1 AML cell viability reduction, primary screen, STK33 inhibitor project, CellTiter-Glo luminescence; inhibition, % (concentration not given with the values); 37,000 tested, 7.5% active; NOMO-1 AML viability, 72 h;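 active = most replicates above 80%; inconclusive = exactly half above 80%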;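 also: wells of about 30 µL received 25 nL stock; 0% = median of vehicle wells and 100% = reference inhibitor level; the first replicate is given; inactives centre near 10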
# * marks the source's active call; other numbers are inactive results; ? = inconclusive.
SMILES,NOMO-1 viab
C[C@@H]1CN([C@@H](C)CO)C(=O)Cc2cc(NC(=O)Nc3ccc(C(F)(F)F)cc3)ccc2O[C@@H]1CN(C)Cc1ccccc1,?
C[C@H]1CN([C@@H](C)CO)C(=O)Cc2cc(NC(=O)Cc3ccccc3)ccc2O[C@H]1CN(C)S(C)(=O)=O,-8
CCOC(=O)c1ccc(NC(=O)Cn2nc([N+](=O)[O-])c(Br)c2C)cc1,2
CCCCc1ccc(NC(=O)N=S2CCN(c3ncc(C(F)(F)F)cc3Cl)CC2)cc1,26
CN(c1cccc(NC(=O)c2ccc(N(C)S(=O)(=O)c3ccccc3)cc2)c1)S(C)(=O)=O,42
CC(C(=O)Nc1cccnc1)N(c1ccc(Cl)cc1)S(C)(=O)=O (centres undefined),-12
Cc1nc2c([nH]1)C(c1ccc(C(C)C)cc1)C(C#N)=C(N)O2 (centres undefined),42
Cc1noc(C)c1NC(=O)Nc1ccc2c(c1)C(=O)N([C@H](C)CO)C[C@H](C)[C@H](CN(C)C(=O)Nc1c(C)noc1C)OCCCC[C@@H](C)O2,6
C[C@H]1CN([C@@H](C)CO)C(=O)Cc2cc(NC(=O)Nc3ccc(F)cc3)ccc2O[C@@H]1CN(C)Cc1ccccc1,37
Cc1cc(C)c(S(=O)(=O)N2CCN(c3ccc([N+](=O)[O-])c(NCc4ccco4)c3)CC2)c(C)c1,2
C[C@@H]1CCCCO[C@@H](CN(C)S(=O)(=O)c2ccccc2)[C@@H](C)CN([C@H](C)CO)C(=O)c2cc(NC(=O)NC3CCCCC3)ccc2O1,20
COC(=O)c1cc(C)nc(Sc2ccccc2NC(C)=O)n1,6
CN(CC(=O)Nc1ccncc1)S(=O)(=O)c1ccc(Cl)cc1,2
Cc1ccc(SC(C)C(=O)Nc2cccc(N(C)S(C)(=O)=O)c2)cc1 (centres undefined),-15
C[C@H]1CN([C@@H](C)CO)C(=O)c2cccc(NC(=O)C3CCCCC3)c2O[C@H]1CN(C)Cc1ccc(C(=O)O)cc1,25
C[C@@H]1CN([C@@H](C)CO)C(=O)c2cc(NS(=O)(=O)c3cccs3)ccc2O[C@H]1CN(C)C(=O)NC1CCCCC1,26
C[C@H](CO)N1C[C@H](C)[C@H](CN(C)Cc2ccc(C(=O)O)cc2)Oc2c(NS(=O)(=O)c3ccc(F)cc3)cccc2C1=O,3
C[C@@H]1CN([C@@H](C)CO)C(=O)c2cccc(NC(=O)C3CCOCC3)c2O[C@H]1CN(C)Cc1ccc(C(F)(F)F)cc1,17
COc1ccc(S(=O)(=O)Nc2cccc3c2O[C@@H](CN(C)Cc2ccc(-c4ccccc4)cc2)[C@H](C)CN([C@H](C)CO)C3=O)cc1,22
C[C@H]1CN([C@@H](C)CO)C(=O)c2cccc(NC(=O)C3CCCCC3)c2O[C@@H]1CN(C)C(=O)Nc1ccc(F)cc1,13
COc1ccc(Cl)cc1S(=O)(=O)Nc1ccc(Cl)cn1,-10
CC(=O)Oc1ccc(-c2coc3cc(OC(C)=O)cc(OC(C)=O)c3c2=O)cc1,29
COc1ccc(S(=O)(=O)N(C)C[C@@H]2Oc3ccc(NC(=O)Nc4ccc(F)cc4)cc3C(=O)N([C@H](C)CO)C[C@@H]2C)cc1,64
COc1ccc(NC(=O)Nc2ccc3c(c2)C(=O)N([C@H](C)CO)C[C@@H](C)[C@H](CN(C)S(C)(=O)=O)O3)cc1,-10
O=[N+]([O-])c1cc(C(F)(F)F)ccc1NCCNS(=O)(=O)c1ccc2ccccc2c1,45
Cc1noc(C)c1NC(=O)Nc1ccc2c(c1)C(=O)N([C@H](C)CO)C[C@H](C)[C@H](CN(C)C(=O)Nc1ccc(F)cc1)OCCCC[C@@H](C)O2,12
CC(C(=O)Nc1cccc(C(F)(F)F)c1)N(c1ccc(Cl)cc1)S(C)(=O)=O (centres undefined),23
COc1ccc(S(=O)(=O)Nc2ccc3c(c2)C(=O)N([C@H](C)CO)C[C@H](C)[C@@H](CN(C)C(=O)NC(C)C)O3)cc1,-18
CC(C)(C)OC(=O)N1C(N)=C(C#N)C2(CCOCC2)c2[nH]c(C(F)(F)F)nc21,-7
Cc1ccc(NC(=O)COc2ccc(C(=O)Nc3cccc(C)c3C)cc2)cc1,?
Cc1cc(C(F)(F)F)nc(SCC(=O)Nc2cccc(Cl)c2Cl)n1,-10
C[C@H](CO)N1C[C@H](C)[C@@H](CN(C)CC2CC2)Oc2ccc(NS(=O)(=O)c3ccc(Cl)cc3)cc2C1=O,-8
Cc1ccc(S(=O)(=O)Nc2ccc3c(c2)CC(=O)N([C@@H](C)CO)C[C@@H](C)[C@@H](CN(C)Cc2ccc(C(F)(F)F)cc2)O3)cc1,84*
C[C@H](CO)N1C[C@H](C)[C@H](CN(C)Cc2ccncc2)Oc2ccc(NS(=O)(=O)c3ccc(Cl)cc3)cc2CC1=O,27
C[C@@H]1CN([C@H](C)CO)C(=O)c2cccc(NC(=O)Nc3ccc4c(c3)OCO4)c2O[C@H]1CN(C)C(=O)Nc1cccc2ccccc12,0
C[C@H](CO)N1C[C@H](C)[C@H](CN(C)C(=O)Nc2ccccc2)Oc2ccc(NS(=O)(=O)c3cccs3)cc2CC1=O,-7
COc1ccc(NC(=O)N(C)C[C@@H]2Oc3ccc(NC(=O)CCC(F)(F)F)cc3C(=O)N([C@H](C)CO)C[C@@H]2C)cc1,-5
CNC[C@H]1Oc2c(NC(=O)C3CCCCC3)cccc2C(=O)N([C@H](C)CO)C[C@H]1C,7
C[C@H]1CN([C@@H](C)CO)C(=O)Cc2cc(NC(=O)Nc3ccc(F)cc3)ccc2O[C@H]1CN(C)S(=O)(=O)c1ccccc1,108*
Cc1ccc(-c2csc3ncn(CC(=O)Nc4cc(Cl)ccc4Cl)c(=O)c23)cc1,15
Cc1cccc(C)c1NC(=O)CN(c1ccc(Br)cc1)S(C)(=O)=O,14
Cc1nc2ccccc2n1CC(O)COc1ccc(C(C)C)cc1 (centres undefined),69
CC(C)NC(=O)N(C)C[C@@H]1Oc2ccc(NC(=O)C3CCCCC3)cc2CC(=O)N([C@@H](C)CO)C[C@@H]1C,10
CCOC(=O)NC1C=CS(=O)(=O)C1 (centres undefined),-2
Cc1n[nH]c(C)c1SCC(=O)Nc1ccc(F)cc1,32
C[C@@H]1CCCCO[C@@H](CN(C)Cc2ccc(C(F)(F)F)cc2)[C@@H](C)CN([C@H](C)CO)C(=O)c2cc(NC(=O)CCCCCC(=O)Nc3ccccc3N)ccc2O1,125*
CCC(C)[C@H]1C(=O)O[C@H](C(C)C)C(=O)N(C)[C@@H](C(C)C)C(=O)O[C@H](C(C)C)C(=O)N(C)[C@@H](C(C)C)C(=O)O[C@H](CC(C)C)C(=O)N1C (some centres undefined),119*
Cc1ccc(N(CC(O)Cn2c3ccccc3c3ccccc32)S(C)(=O)=O)c(C)c1 (centres undefined),90*
COc1ccc(CN(C)C[C@@H]2Oc3ccc(NS(=O)(=O)c4ccc(Cl)cc4)cc3C(=O)N([C@H](C)CO)C[C@@H]2C)cc1,23
C[C@H]1CN([C@@H](C)CO)C(=O)Cc2cc(NC(=O)CCCCCC(=O)Nc3ccccc3N)ccc2O[C@@H]1CN(C)C(=O)NC1CCCCC1,15
CNC[C@@H]1Oc2c(NS(=O)(=O)c3cn(C)cn3)cccc2C(=O)N([C@H](C)CO)C[C@H]1C,2
C[C@@H]1CCCCO[C@H](CN(C)C(=O)Nc2ccc3c(c2)OCO3)[C@@H](C)CN([C@H](C)CO)C(=O)c2cc(NC(=O)Nc3ccc(F)cc3)ccc2O1,5
COc1ccc(OC)c(NC(=O)COc2ccc(C(=O)Nc3ccc(Cl)cc3)cc2)c1,8
Cc1ccc(S(=O)(=O)Nc2ccc3c(c2)C(=O)N([C@@H](C)CO)C[C@H](C)[C@@H](CN(C)S(=O)(=O)c2ccc(Cl)cc2)O3)cc1,4
C[C@H]1CN([C@@H](C)CO)C(=O)c2cc(NC(=O)C3CC3)ccc2O[C@@H]1CN(C)Cc1ccc(C(=O)Nc2ccccc2N)cc1,?
C[C@H](CO)N1C[C@H](C)[C@H](CN(C)C(=O)Nc2ccc(F)cc2)Oc2c(NS(C)(=O)=O)cccc2C1=O,22
COc1ccccc1NC(=O)CSc1nnc(-c2ccccc2)n1-c1cccc(C)c1,24
COc1ccc(S(=O)(=O)Nc2ccc3c(c2)CC(=O)N([C@@H](C)CO)C[C@@H](C)[C@@H](CN(C)Cc2ccc(C(=O)Nc4ccccc4N)cc2)O3)cc1,100*
O=C(NCCc1nc2ccccc2[nH]1)c1cccc(Cl)c1,31
C[C@H]1CN([C@@H](C)CO)C(=O)Cc2cc(NC(=O)C3CC3)ccc2O[C@H]1CN(C)C(=O)Nc1ccc(F)cc1,-6

# The list continues.
SMILES,NOMO-1 viab
CC(C)NC(=O)N(C)C[C@@H]1Oc2ccc(NS(=O)(=O)c3cccs3)cc2CC(=O)N([C@H](C)CO)C[C@@H]1C,-3
CC(C)NC(=O)Nc1ccc2c(c1)CC(=O)N([C@H](C)CO)C[C@@H](C)[C@H](CN(C)C(=O)Nc1ccc(F)cc1)O2,4
C[C@@H]1CCCCO[C@H](CN(C)C(=O)NC2CCCCC2)[C@@H](C)CN([C@H](C)CO)C(=O)c2cc(NC(=O)c3ccncc3)ccc2O1,13
C[C@H]1CN([C@@H](C)CO)C(=O)c2cc(NC(=O)C3CCCCC3)ccc2O[C@H]1CN(C)C(=O)NC1CCCCC1,-7
C[C@@H]1CN([C@H](C)CO)C(=O)Cc2cc(NC(=O)Nc3ccc4c(c3)OCO4)ccc2O[C@@H]1CN(C)S(=O)(=O)c1ccc(F)cc1,16
C[C@@H]1CCCCO[C@H](CN(C)S(C)(=O)=O)[C@@H](C)CN([C@H](C)CO)C(=O)c2cc(NS(=O)(=O)c3ccccc3)ccc2O1,32
C[C@@H]1CN([C@H](C)CO)C(=O)c2cccc(NS(C)(=O)=O)c2O[C@@H]1CN(C)C(=O)Nc1ccc(F)cc1,13
C[C@@H]1CN([C@H](C)CO)C(=O)c2cccc(NS(=O)(=O)c3cn(C)cn3)c2O[C@H]1CN(C)S(=O)(=O)c1ccc(Cl)cc1,-12
COc1ccc(CN(C)C[C@H]2Oc3ccc(NS(=O)(=O)c4ccc(F)cc4)cc3CC(=O)N([C@H](C)CO)C[C@H]2C)cc1,18
COc1cc2c(c(OC)c1OC)CCc1cc(O)c(O)cc1-2,31
COC(=O)C1=C(C)Nc2ncnn2C1c1ccc(OCC(=O)N2CCOCC2)c(OC)c1 (centres undefined),2
COC(=O)CNC(=O)c1cn(-c2ccccc2)nc1-c1ccc(F)cc1,24
Cc1noc(C)c1NC(=O)N(C)C[C@H]1Oc2ccc(NC(=O)NC(C)C)cc2CC(=O)N([C@@H](C)CO)C[C@H]1C,25
C[C@H](CO)N1C[C@H](C)[C@@H](CN(C)Cc2ccncc2)Oc2ccc(N(C)C)cc2C1=O,13
O=C(CSc1n[nH]c(-c2ccc(Cl)cc2Cl)n1)N1CCc2ccccc21,-1
C[C@H]1CN([C@@H](C)CO)C(=O)c2cc(N(C)C)ccc2O[C@H]1CN(C)C(=O)Nc1ccccc1,11
C[C@@H]1CN([C@@H](C)CO)C(=O)Cc2cc(N(C)C)ccc2O[C@@H]1CN(C)C(=O)Nc1ccc(C(F)(F)F)cc1,-3
CCc1c(C)sc(NC(=S)NCc2cc(C)n(C)n2)c1C(=O)OC,4
Cc1cc(C(=O)Nc2cccc3c2O[C@H](CN(C)S(=O)(=O)c2ccc(F)cc2)[C@H](C)CN([C@@H](C)CO)C3=O)n(C)n1,4
CC1=C(C(=O)OCc2ccccc2)OC(N)=C(C#N)C1c1ccc(F)cc1 (centres undefined),?

# Arranged by length of the SMILES (falling): some entries from above
SMILES,NOMO-1 viab
C[C@@H]1CN([C@H](C)CO)C(=O)Cc2cc(NC(=O)Nc3ccc4c(c3)OCO4)ccc2O[C@@H]1CN(C)S(=O)(=O)c1ccc(F)cc1,16
C[C@@H]1CN([C@H](C)CO)C(=O)c2cccc(NS(=O)(=O)c3cn(C)cn3)c2O[C@H]1CN(C)S(=O)(=O)c1ccc(Cl)cc1,-12
COc1ccc(CN(C)C[C@H]2Oc3ccc(NS(=O)(=O)c4ccc(F)cc4)cc3CC(=O)N([C@H](C)CO)C[C@H]2C)cc1,18
C[C@@H]1CN([C@@H](C)CO)C(=O)Cc2cc(N(C)C)ccc2O[C@@H]1CN(C)C(=O)Nc1ccc(C(F)(F)F)cc1,-3
CC(C)NC(=O)N(C)C[C@@H]1Oc2ccc(NS(=O)(=O)c3cccs3)cc2CC(=O)N([C@H](C)CO)C[C@@H]1C,-3
C[C@@H]1CN([C@H](C)CO)C(=O)c2cccc(NS(C)(=O)=O)c2O[C@@H]1CN(C)C(=O)Nc1ccc(F)cc1,13
C[C@H]1CN([C@@H](C)CO)C(=O)c2cc(NC(=O)C3CCCCC3)ccc2O[C@H]1CN(C)C(=O)NC1CCCCC1,-7
C[C@H]1CN([C@@H](C)CO)C(=O)c2cc(N(C)C)ccc2O[C@H]1CN(C)C(=O)Nc1ccccc1,11
O=C(CSc1n[nH]c(-c2ccc(Cl)cc2Cl)n1)N1CCc2ccccc21,-1
COC(=O)CNC(=O)c1cn(-c2ccccc2)nc1-c1ccc(F)cc1,24
CCc1c(C)sc(NC(=S)NCc2cc(C)n(C)n2)c1C(=O)OC,4

# Next section.
SMILES,NOMO-1 viab
Cc1cccnc1NC(=S)Nc1ccc(S(N)(=O)=O)cc1,14
COc1ccc(NC(=O)N(C)C[C@H]2Oc3ccc(NC(=O)NC4CCCCC4)cc3CC(=O)N([C@H](C)CO)C[C@H]2C)cc1,17
C[C@@H]1CN([C@@H](C)CO)C(=O)c2cccc(NS(=O)(=O)c3ccccc3)c2O[C@H]1CN(C)C(=O)Nc1ccc(C(F)(F)F)cc1,9
Cc1ccc(-n2c(SCC(=O)Nc3ccccc3C)nc3nc4c(cc3c2=O)COC(C)(C)C4)cc1,28
CC(=O)Oc1ccc2c(=O)c(Oc3ccc(Cl)cc3)c(C)oc2c1,34

# Not all compounds are listed; count on the stated rates, not on these rows.
